BmaI1 enzyme: BmaI1 acyl-homoserine lactone synthase inhibition – biochemical, fluorescence intensity, with counterscreen (AID 720554). BmaI1 enzyme assay, fluorescence intensity; hits give high values; test concentration not given here; a few actives read low; strong numbers were not always called active. inhibition, %. actives 0.4% (n = 12,000);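 active = both replicates within 2 robust z-scores of the inhibited control and a quiet counterscreen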;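 note: 0% = uninhibited enzyme and 100% = inhibited control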
BmaI1 enzyme counterscreen: recorded beside BmaI1 enzyme, whose call it bears; inhibition, %; measured here: counterscreen; design of the counterscreen not given here;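 first of two replicates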
* marks the source's active call; other numbers are inactive results. A portion of the library (hit frequency here may not be typical).

SMILES | BmaI1 enzyme | BmaI1 enzyme counterscreen
NC(=O)COC(=O)/C=C/c1ccc(S(=O)(=O)N2CCOCC2)cc1 | 4 | 1
Cc1cccc(C)c1NC(=O)CCCSc1nnc(N)s1 | 14 | 10
CCCCN1C(=O)CNC1=S | -58 | -39
CNC(=O)COC(=O)c1oc2ccccc2c1C | 13 | -1
CC1CCC(NC(=O)c2ccc3c(=O)[nH][nH]c(=O)c3c2)CC1 (configuration not stated) | 26 | 56
CCOC(=O)c1c(C)noc1C | 6 | 10
O=C(NCCN1CCOCC1)c1ccco1 | 3 | 2
CC[C@H]1OC(=O)[C@H](C)[C@@H](O[C@H]2C[C@@](C)(OC)[C@@H](O)[C@H](C)O2)[C@H](C)[C@@H](O[C@@H]2O[C@H](C)C[C@H](N(C)C)[C@H]2O)[C@](C)(O)C[C@@H](C)CN(C)[C@H](C)[C@@H](O)[C@]1(C)O | 2 | 6
CCO/C=C1/C(=O)N(Cc2ccc(OC)cc2)C(=O)c2ccccc21 | 7 | 2
CCc1sc(C(=O)Nc2nc(-c3ccccn3)cs2)cc1C | 24 | 7
O=C(Cc1ccc(Cl)cc1)OC1CCOC1=O (configuration not stated) | 16 | 13
Cc1cc(-c2csc(NC(=O)C3CC4C=CC3C4)n2)c(C)n1Cc1ccco1 (configuration not stated) | 2 | -2
COC(=O)c1noc(C(=O)OC)c1O | 5 | 4
CN(c1ccccc1)S(=O)(=O)c1ccc(C(=O)c2sc(N3CCOCC3)nc2-c2cccs2)cc1 | 12 | 2
COc1ccc(CC(=O)OCC(=O)N2CCN(S(=O)(=O)c3ccc(C)cc3)CC2)cc1 | 14 | 10
CCN(CC)S(=O)(=O)c1ccc(C(=O)N2CCN(c3ccccc3)CC2)cc1 | 6 | 4
O=c1c2ccccc2nnn1CSC(=S)N1CCCC1 | 14 | 0
OC1(c2ccco2)CSC(=Nc2cccnc2)N1C1CC1 (configuration not stated) | 9 | 9
COc1ccc(C(=O)N=c2sc3ccccc3n2C)cc1 | 14 | 4
CCn1c(CN2C(=O)c3ccccc3C2=O)nc2cc(S(=O)(=O)N(C)C)ccc21 | 12 | 3
Cc1[nH]c(=O)n(CN2CCN(c3ncc(C(F)(F)F)cc3Cl)CC2)c1C | 23 | 12
CCOc1ccc2nc(SCC(=O)NC(=O)CN3CCCC3=O)sc2c1 | 24 | 8
O=C(OCC(=O)c1ccc(S(=O)(=O)N2CCCC2)cc1)C1=COCCO1 | 6 | 1
Nc1nc(Cl)nc2c1ncn2[C@@H]1O[C@H](CO)[C@@H](O)[C@H]1O | -31 | -20
CCN(CC)CCNc1cc(C)c2cccc(C)c2n1 | 6 | 2
Additional compounds follow:
SMILES | BmaI1 enzyme | BmaI1 enzyme counterscreen
Fc1ccc([C@@H]2CCNC[C@H]2COc2ccc3c(c2)OCO3)cc1 | -4 | 2
COc1ccccc1NCC(=O)Nc1ccc(N2CCOCC2)cc1 | -8 | -24
O=C(CN1CC(=O)Nc2ccccc21)Nc1cccc(Cl)c1 | -8 | -14
O=C(CCc1c[nH]c2ccccc12)OCN1C(=O)c2ccccc2C1=O | 2 | -2
CC1CC(C)CN(C(=O)COC(=O)c2ccc(N3CCCC3=O)cc2)C1 (configuration not stated) | 5 | 6
CC(Sc1nnc(-c2cccs2)n1-c1ccccc1)C(=O)NCc1ccc2c(c1)OCO2 (configuration not stated) | 5 | -2
COC(=O)c1sccc1N=CC1=C(O)CC(C)(C)CC1=O | 10 | 12
COc1cc2nc(CN3CCOCC3)n(CC(=O)NCC(F)(F)F)c(=O)c2cc1OC | 16 | 1
COc1ccc(CN(C)Cc2cc(=O)n3ccsc3n2)c(OC)c1OC | 14 | 6
C=C1N(C)c2cc(CN3C(=O)c4ccccc4C3=O)ccc2C1(C)C | 6 | -9
CCN(c1ccccc1)S(=O)(=O)c1ccc(N2CCN(c3ccccn3)CC2)nc1 | 14 | 8
CCN(CC(=O)NCc1cccs1)c1ccc(S(=O)(=O)N2CCCC2)cn1 | 10 | 2
COC(=O)c1c(C)[nH]c(C(=O)C(C)N2CCCc3ccccc32)c1C (configuration not stated) | 18 | -7
Cc1c(C(=O)NCC(C)C)oc2c1ccc1ccccc12 | -7 | -6
Nc1nnc(SCC(=O)N2CCc3ccccc32)s1 | 24 | 4
O=C(COC(=O)Cc1ccc(Br)cc1)NCc1ccco1 | 8 | 12
CCN1C(=O)c2cccc3c(S(=O)(=O)NCCCn4ccnc4)ccc1c23 | 22 | 9
CC(C)NC(=O)COc1cccc2ccccc12 | 9 | 4
CCN(C(=O)CSc1nnnn1-c1ccccc1)C1CCS(=O)(=O)C1 (configuration not stated) | 8 | -4
CCOC(=O)C1CCN(Cn2c(=S)n(-c3ccc(OC)cc3)c3ccccc32)CC1 | 20 | 4
O=c1[nH]c(=O)n(Cc2ccccc2)c2ncn(Cc3ccco3)c12 | 8 | 6
COCCNCc1nc(NCCOC)c2c(C)c(C)sc2n1 | 14 | 2
CN(CCCN1c2ccccc2CCc2ccccc21)CC(=O)c1ccc(Cl)cc1 | 22 | 32
O=C(Cn1c(=O)oc2ccccc21)NC(=O)NC1CCCC1 | 2 | 9
N#CC1(NC(=O)CSc2nnc3ccccn23)CCCCC1 | 3 | 6
Continued:
SMILES | BmaI1 enzyme | BmaI1 enzyme counterscreen
CCN(CC)S(=O)(=O)c1cc(C(=O)N2CCN(Cc3ccc4c(c3)OCO4)CC2)ccc1Cl | 17 | 8
COc1ccc(/C=C/C(=O)N2CC(=O)Nc3ccccc32)cc1S(=O)(=O)N1CCOCC1 | 6 | -2
CCOc1ccc(N=C2SCCCN2C(=O)c2ccc(C#N)cc2)cc1 | -1 | 0
CCN(CC)S(=O)(=O)c1ccc2c(c1)nc(CCC(=O)Nc1ccc(C(C)C)cc1)n2CC | 10 | -2
COc1ccc(/C=C/C(=O)C(C(N)=O)=C2SCS2)cc1 | 5 | 8
Cc1cc(/C=N/NC(=O)c2cccnc2)c(C)n1CC(C)C | 14 | -9
CC(C#N)(c1ccccc1)c1ccccc1 | 12 | 8
O=C(CC1C(=O)OCC2CCCCN21)Nc1ccc(I)cc1 (configuration not stated) | 10 | 18
O=C(O)c1ccccc1N(Cc1ccc(Br)cc1)C(=O)c1ccco1 | 16 | 6
CCC1C(O)=C(c2ccccn2)C(=N)N1c1ccccc1 (configuration not stated) | 22 | 2
CN(C)S(=O)(=O)c1ccc(C(=O)N2CCC(c3nc4ccccc4o3)CC2)cc1 | 4 | 2
NS(=O)(=O)c1ccc(-n2ncc(Cl)c(Cl)c2=O)cc1 | 14 | 2
COc1cccc(-n2c(SCC(=O)N3CCCCC3C)nc3ccccc3c2=O)c1 (configuration not stated) | 3 | 8
N#Cc1ccc(OCC(=O)OCC(=O)N2CCCCC2)cc1 | 9 | 2
CC(C)(CNC(=O)Nc1ccc(Cl)c(Cl)c1)N1CCOCC1 | -3 | 2
CC1CCCC(C)N1C(=O)COC(=O)CN1C(=O)c2ccccc2C1=O (configuration not stated) | 16 | -8
O=C(c1cc(Cl)c(O)c(Cl)c1)N1CCc2ccccc2C1 | 10 | 5
Cc1ccc(-c2nn(Cc3ccccc3)cc2C(=O)N2CCC2)cc1 | -2 | -5
COCC(C)n1c(C)cc(C(=O)COC(=O)c2c(C)nn(-c3ccccc3)c2C)c1C (configuration not stated) | 8 | 0
Cn1cnnc1SC/C(O)=C(\C#N)c1nc2ccccc2[nH]1 | 4 | 12
COc1cc2oc(=O)c3c(c2cc1Cl)CCCC3 | 16 | 10
CCn1c(C2CC2)n[nH]c1=S | 78 | 62
N#Cc1ccccc1S(=O)(=O)N1CCN(Cn2c(Cc3ccccc3)nc3ccccc32)CC1 | 8 | 8
COC(=O)C1=C(C)NC(C)=C(C(=O)OC)C1c1ccccc1[N+](=O)[O-] | 28 | 4
C=CCn1c(COc2ccc(OC)cc2)nnc1SC(C(=O)NC(=O)NC)c1ccccc1 (configuration not stated) | 8 | 0

Entries above that have fluorine:
SMILES | BmaI1 enzyme | BmaI1 enzyme counterscreen
Cc1[nH]c(=O)n(CN2CCN(c3ncc(C(F)(F)F)cc3Cl)CC2)c1C | 23 | 12
Fc1ccc([C@@H]2CCNC[C@H]2COc2ccc3c(c2)OCO3)cc1 | -4 | 2
COc1cc2nc(CN3CCOCC3)n(CC(=O)NCC(F)(F)F)c(=O)c2cc1OC | 16 | 1

One compound at a time, as listed above. Order of screens: BmaI1 enzyme | BmaI1 enzyme counterscreen
COCC(C)n1c(C)cc(C(=O)COC(=O)c2c(C)nn(-c3ccccc3)c2C)c1C (configuration not stated) in the list: 8 | 0
COc1ccc(/C=C/C(=O)N2CC(=O)Nc3ccccc32)cc1S(=O)(=O)N1CCOCC1 in the list: 6 | -2
Cc1cc(/C=N/NC(=O)c2cccnc2)c(C)n1CC(C)C in the list: 14 | -9

Back to the main list; the 2 compounds before the break are reprinted first.
SMILES | BmaI1 enzyme | BmaI1 enzyme counterscreen
COC(=O)C1=C(C)NC(C)=C(C(=O)OC)C1c1ccccc1[N+](=O)[O-] | 28 | 4
C=CCn1c(COc2ccc(OC)cc2)nnc1SC(C(=O)NC(=O)NC)c1ccccc1 (configuration not stated) | 8 | 0
COCCCNc1nc2ccccc2[nH]c1=O | 0 | -2
CC1=C(CC(=O)O)c2cc(F)ccc2/C1=C\c1ccc(S(C)=O)cc1 (configuration not stated) | 8 | 14
CCCn1c(C)cc(C(=O)CN(C)S(=O)(=O)c2ccc(F)cc2)c1C | 2 | 2
Cn1nnnc1SCC(=O)c1ccc(Br)s1 | 21 | 10
Cc1cc(NC(=O)COC(=O)C2CSC3(C)CCC(=O)N23)no1 (configuration not stated) | 12 | -2
CCCN1C(=O)/C(=N\OCC(=O)N2N=C(c3ccc(Cl)cc3)CC2c2ccco2)c2ccccc21 (configuration not stated) | 12 | 6
CC(OC(=O)Cn1ccc(C(F)(F)F)n1)c1nc2ccccc2c(=O)[nH]1 (configuration not stated) | 12 | -2
Cc1cc(Cl)nc2ccccc12 | 10 | 2
Cc1cc(C(=O)CN(Cc2ccco2)C2CCS(=O)(=O)C2)c(C)n1Cc1cccs1 (configuration not stated) | 4 | 4
CN(CC(=O)Nc1ccc(F)cc1)C(=O)COc1ncnc2c1cnn2-c1ccccc1 | 10 | 7
CCn1c(CSc2nc(C)c(C)n2C2CCCC2)nc2cc(S(=O)(=O)N(C)C)ccc21 | 28 | 2
Cc1ccc(C(=O)COC(=O)COc2ccccc2O)cc1C | 50 | 18
O=S1(=O)CCC(NCc2cc(Cl)c3c(c2)OCCCO3)C1 (configuration not stated) | 7 | -4
CC(=O)Oc1ccc(S(=O)(=O)c2ccc(OC(C)=O)cc2)cc1 | 14 | 6
Cc1cc(C)n2nc(SCC(=O)N3c4ccccc4CC3C)nc2n1 (configuration not stated) | 18 | 14
O=C1c2ccccc2C(=O)N1CSc1ncnc2c1cnn2-c1ccccc1 | 10 | -10
CN(C)S(=O)(=O)c1cccc(CSc2cccc[n+]2[O-])c1 | 14 | 4
Cc1ccc2nc(NC(=O)CCc3nc4cc(S(=O)(=O)N5CCCCC5)ccc4n3C)sc2c1 | 4 | 2
Cc1ccc(C)c(C(=O)Cn2cc(Br)ccc2=O)c1 | 17 | 11
CC1NC(=S)N(c2ccc(C(C)C)cc2)C1=O (configuration not stated) | -52 | -20
COc1ccc(CNC(=O)c2cccc(NC(C)=O)c2)cc1OC | 0 | -4
CC1CCCCN1C(=O)COC(=O)c1ccccc1NCc1ccco1 (configuration not stated) | 2 | 2
C=CCNc1nc(C(=O)OCc2c(C)noc2C)cs1 | 12 | 0
CN(Cc1ccccc1)C(=O)CSc1ncn[nH]1 | 4 | 3

2 consecutive entries already listed, quoted:
SMILES | BmaI1 enzyme | BmaI1 enzyme counterscreen
COCCCNc1nc2ccccc2[nH]c1=O | 0 | -2
CC1=C(CC(=O)O)c2cc(F)ccc2/C1=C\c1ccc(S(C)=O)cc1 (configuration not stated) | 8 | 14
